Insulin prom inh: TRM-6 insulin promoter activity inhibition | TRM-6 cells (human fetal islet line), insulin promoter-eGFP reporter, imaging; reporter expression induced with tamoxifen | 130,000 tested, 0.9% active | inhibition, % at 2 µM;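 active = inhibition above the mean plus 3 SD, with well images judged a real hit on visual review, cut at about 60% in these data, passing the limit was not always enough; inconclusive = inhibition over the cutoff but images rejected on review; inactive = inhibition not above the cutoff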
RGS16-Gao: regulators of human RGS16-Galphao interaction | binding response (% of control), % at 10 µM | 220,000 tested, 0.38% active | AID 1441 | bead-based flow cytometry RGS16-Galphao binding, fluorescence; actives lie on both sides;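 active = below 25% or above 175%, edge rows of some plates excepted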;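 also: Galphao activated by GDP with aluminum fluoride before binding; 100% = wells without compound and 0% = beads without RGS; some results beyond the cut were filed as inactive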
Target sequence (O15492 whole entry, looked up): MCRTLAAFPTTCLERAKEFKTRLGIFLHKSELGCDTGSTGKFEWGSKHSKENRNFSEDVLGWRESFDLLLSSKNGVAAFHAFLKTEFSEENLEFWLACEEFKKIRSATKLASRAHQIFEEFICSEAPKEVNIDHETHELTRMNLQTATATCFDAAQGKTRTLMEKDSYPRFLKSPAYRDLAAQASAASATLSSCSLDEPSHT
Target sequence (P09471 whole entry, looked up): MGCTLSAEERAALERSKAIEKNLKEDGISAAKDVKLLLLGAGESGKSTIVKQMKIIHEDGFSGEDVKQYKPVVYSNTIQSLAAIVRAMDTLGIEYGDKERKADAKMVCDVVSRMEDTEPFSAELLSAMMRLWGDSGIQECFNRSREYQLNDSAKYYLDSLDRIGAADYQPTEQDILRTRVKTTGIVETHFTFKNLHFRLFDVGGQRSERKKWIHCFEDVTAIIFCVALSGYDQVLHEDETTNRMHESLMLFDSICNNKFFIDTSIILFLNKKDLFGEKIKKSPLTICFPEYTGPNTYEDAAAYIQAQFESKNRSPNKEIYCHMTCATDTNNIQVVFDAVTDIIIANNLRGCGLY
GALR2 ag: GALR2 (human) receptor agonism; O43603; GALR2-expressing cells, agonist activation read-out; activation, %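 (tested at 5 µM)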; 140,000 tested, 0.48% active;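 active = above mean plus 3 SD of all compounds, about 5% in these data, not always enough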;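 also: 0% = vehicle buffer wells and 100% = reference agonist at full effect; tested in CHO reporter cells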
Target sequence (O43603 whole entry, looked up): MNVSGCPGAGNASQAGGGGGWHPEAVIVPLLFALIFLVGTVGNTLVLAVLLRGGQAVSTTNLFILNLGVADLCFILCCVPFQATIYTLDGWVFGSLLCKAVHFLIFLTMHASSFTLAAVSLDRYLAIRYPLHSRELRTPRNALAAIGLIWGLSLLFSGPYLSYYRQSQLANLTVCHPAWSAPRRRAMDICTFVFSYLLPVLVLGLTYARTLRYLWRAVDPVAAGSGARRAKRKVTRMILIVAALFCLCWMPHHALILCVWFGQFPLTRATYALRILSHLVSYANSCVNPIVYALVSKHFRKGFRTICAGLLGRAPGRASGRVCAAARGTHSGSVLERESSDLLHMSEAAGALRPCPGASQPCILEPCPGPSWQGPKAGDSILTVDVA
HSV augment: HSV replication enhancement; HSV replication augmentation in cells, fold increase; maximum fold increase; 220,000 tested, 0.005% active;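 active = peak rise of 1.5-fold or more in the series; inconclusive = self-fluorescent or not available for retest; tested in PC3 cells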;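 also: first round at 10 µM; read as green reporter fluorescence; hits show the peak of a series up to 25 µM; 1 = signal of infected wells without compound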
PKD1 inh: inhibitors of human PKD1 kinase | inhibition, %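 (about 10 µM by stock and volumes)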 | 200,000 tested, 0.056% active | PKD1 kinase fluorescence polarization assay | Q15139;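 active = inhibition of 50% or more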;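 also: controls were vehicle for no effect and a reference inhibitor for full effect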
Insulin prom inh cell count: recorded beside Insulin prom inh, whose call it bears; normalized cell count, %; measured here: cell count, toxicity; reference of the scale not given here;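 cells exposed to compound for 48 h; stained nuclei by imaging scaled within each plate; lower means fewer cells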
HSV augment primary fold: further read-out of HSV augment, marked with its call; fold increase; compound at 10 µM; measured here: primary screen fold increase 10 uM; tested in PC3 cells;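 GFP signal in the first replicate; 1 = infected wells without compound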
Starred values were filed as active, the others as inactive; i = inactive; ? = inconclusive; / = not tested or not shown.

SMILES	Insulin prom inh	Insulin prom inh cell count	RGS16-Gao	GALR2 ag	HSV augment	HSV augment primary fold	PKD1 inh
O=C(CC1C(=O)NCCN1Cc1ccc(-c2ccccc2)cc1)NCc1ccncc1 (stereo not drawn)	/	/	103	/	i	0.69	5
Cc1ccc(OCCN(C)C)c([N+](=O)[O-])c1	/	/	107	-0.2	i	0.93	2
Cc1cc(OCC(O)CN2CCN(C)CC2)ccc1C(C)C (stereo not drawn)	/	/	91	-0.1	i	1	-17
O=S(=O)(/N=C(/NNS(=O)(=O)c1ccccc1)c1ccccc1)c1ccccc1	/	/	84	/	i	1.1	-4
O=C(NCc1nnc(SCC(=O)N2CCC(Cc3ccccc3)CC2)o1)c1ccccc1F	/	/	101	-1.0	i	0.77	-9
Cc1ccc(CSCCNC(=O)CCSc2ccccc2)cc1	-17	98	98	-3.5	i	0.97	5
N#CC(C#N)=C/C=C(\Nc1ccc(Cl)cc1)c1ccc(Cl)cc1	/	/	102	/	i	0.99	/
O=C(Nc1cccc(-c2cn3ccccc3n2)c1)c1cccs1	21	96	130	-0.1	i	0.87	13
O=C(Cn1nc(Cl)nc1Cl)c1ccc2c(c1)OCCO2	/	/	114	-1.8	i	1	-11
CS(=O)(=O)N(CC(=O)Nc1ccccc1Sc1ccccc1)c1cccc(Br)c1	-43	91	99	-0.6	i	1	7
CC1(C)Cc2cccc(C(=O)Nc3ccc(Cl)cc3)c2O1	/	/	94	/	i	1.1	/
Cc1ccc(Cl)cc1NC(=S)N(Cc1ccccc1)Cc1cccnc1	/	/	100	/	i	1.1	4
CCOC(=O)CNc1ccc2c(c1)OCO2	9	126	63	-2.2	?	/	3
CCOC(=O)c1cc(C#N)c(=S)[nH]c1C	/	/	102	/	i	1.1	-2
O=C(Cn1cnc2ccccc21)c1ccc(Br)cc1	/	/	104	/	i	1.1	-10
Cc1sc(NC(=O)c2cccc([N+](=O)[O-])c2)c(C(N)=O)c1-c1ccc(C(C)(C)C)cc1	3	86	104	-0.8	i	1	-1
CCOc1cc(C(=S)N2CCCCC2)ccc1OS(=O)(=O)c1ccc(Cl)cc1	7	69	104	0.8	i	0.86	0
COc1ccc(C2CC(c3cccs3)=NN2C(=O)CSc2nc3c(cnn3-c3ccccc3)c(=O)[nH]2)cc1 (stereo not drawn)	-15	75	112	0.5	i	0.89	2
CC1(C)CC(=O)C/C(=N\NC(=O)C2C3CCCCC32)C1 (stereo not drawn)	/	/	96	/	i	0.97	-7
Cc1cccc2c1NC(C)CC2C (stereo not drawn)	33	116	105	-1.0	i	1	-5
COc1ccccc1OCCn1cc(/C=C(\C#N)C(=O)NCc2cccs2)c2ccccc21	10	113	109	-1.4	i	0.94	-11
CCCN1C(=O)c2cc(C(=O)Nc3ccccc3CC)ccc2C1O (stereo not drawn)	/	/	114	-3.4	i	0.99	20
COC(=O)c1ccccc1NC(=O)Cn1cnc2c(cnn2-c2ccccc2)c1=O	-86	81	101	-2.2	i	1	-9
CCN1C(=O)S/C(=C/c2ccsc2)C1=O	-19	85	105	-1.1	i	1	-4
Cc1ccc(-c2nc(C3CCN(S(=O)(=O)c4ccc(C(F)(F)F)cc4)CC3)no2)cc1	14	117	141	-2.5	i	0.9	-4

Taken from above:
Result for O=C(NCc1nnc(SCC(=O)N2CCC(Cc3ccccc3)CC2)o1)c1ccccc1F in PKD1 inh: -9
Result for CCOC(=O)CNc1ccc2c(c1)OCO2 in RGS16-Gao: 63
Result for Cc1ccc(Cl)cc1NC(=S)N(Cc1ccccc1)Cc1cccnc1 in PKD1 inh: 4

5 entries from above, with two lines to a compound:
Screens in order – Insulin prom inh	Insulin prom inh cell count	RGS16-Gao	GALR2 ag	HSV augment	HSV augment primary fold	PKD1 inh
Cc1cc(OCC(O)CN2CCN(C)CC2)ccc1C(C)C (stereo not drawn)
→ /	/	91	-0.1	i	1	-17
O=S(=O)(/N=C(/NNS(=O)(=O)c1ccccc1)c1ccccc1)c1ccccc1
→ /	/	84	/	i	1.1	-4
O=C(NCc1nnc(SCC(=O)N2CCC(Cc3ccccc3)CC2)o1)c1ccccc1F
→ /	/	101	-1.0	i	0.77	-9
Cc1ccc(CSCCNC(=O)CCSc2ccccc2)cc1
→ -17	98	98	-3.5	i	0.97	5
N#CC(C#N)=C/C=C(\Nc1ccc(Cl)cc1)c1ccc(Cl)cc1
→ /	/	102	/	i	0.99	/

The listing picks up, starting five compounds before the break.
SMILES	Insulin prom inh	Insulin prom inh cell count	RGS16-Gao	GALR2 ag	HSV augment	HSV augment primary fold	PKD1 inh
COc1ccccc1OCCn1cc(/C=C(\C#N)C(=O)NCc2cccs2)c2ccccc21	10	113	109	-1.4	i	0.94	-11
CCCN1C(=O)c2cc(C(=O)Nc3ccccc3CC)ccc2C1O (stereo not drawn)	/	/	114	-3.4	i	0.99	20
COC(=O)c1ccccc1NC(=O)Cn1cnc2c(cnn2-c2ccccc2)c1=O	-86	81	101	-2.2	i	1	-9
CCN1C(=O)S/C(=C/c2ccsc2)C1=O	-19	85	105	-1.1	i	1	-4
Cc1ccc(-c2nc(C3CCN(S(=O)(=O)c4ccc(C(F)(F)F)cc4)CC3)no2)cc1	14	117	141	-2.5	i	0.9	-4
CCCn1c(SCC(=O)c2ccc(OC)c(OC)c2)nc2c1c(=O)n(C)c(=O)n2C	/	/	102	-1.1	i	0.82	0
COCc1nnc(NC(=O)c2ccc(Cl)cc2[N+](=O)[O-])s1	-32	82	77	-0.9	i	0.97	-9
N#CCCn1cc(/C=N/NC(N)=S)c(-c2ccc(Br)cc2)n1	-21	106	102	/	i	0.8	2
O=C(NC1=NCCS1)c1cccc(S(=O)(=O)N2CCCCC2)c1	/	/	/	-1.6	/	/	-5
O=C(Nc1ncc(S(=O)(=O)c2ccc([N+](=O)[O-])cc2)s1)c1ccc2ccccc2c1	18	59	105	-0.5	i	0.96	-5
C=CCNC(=O)c1ccccc1NS(=O)(=O)c1ccccc1	46	125	100	-0.8	i	0.96	3
Cc1ccc(C(CC(=O)NCc2ccco2)c2ccc(OC(C)C)cc2)cc1 (stereo not drawn)	7	40	/	-2.5	i	0.97	3
C=CCSc1nc(Oc2ccccc2)c2sccc2n1	-13	158	98	-0.8	i	0.88	-19
Cc1cccc(N(CC(=O)Nc2ccc(F)cc2)S(C)(=O)=O)c1	-21	113	104	-0.9	i	0.99	-2
O=C(N/C=N/OCc1ccc(Cl)cc1Cl)NOCc1ncc(C(F)(F)F)cc1Cl	-83	98	105	-1.4	i	1	-13
O=C(N/N=C/c1ccc(F)cc1)c1ccc(Br)cc1	/	/	113	-1.1	i	1.1	-4
CCOC(=O)/C=c1\s/c(=C\c2ccccc2C)c(=O)n1CC(=O)NCc1ccc2c(c1)OCO2	/	/	99	0.1	i	0.77	-4
COc1ccc(OC)c(S(=O)(=O)Nc2cccc(C(C)=O)c2)c1	26	96	99	2.6	i	0.82	1
O=C(Nc1nnc(C2=COCCO2)o1)c1ccc(Cc2ccccc2)cc1	/	/	104	/	i	1	0
CCn1c(CC(=O)Nc2ccccc2)nnc1SCc1nc2ccccc2c(=O)[nH]1	/	/	99	/	i	0.87	/
Cc1nn(C)c(C)c1S(=O)(=O)N(CC(=O)N1CCc2ccccc2C1)c1ccc(C(C)C)cc1	/	/	109	-1.3	i	1.1	0
OC(COc1ccc(OCC(O)CN2CCCCCC2)cc1)CN1CCCCCC1 (stereo not drawn)	-94	87	90	-3.3	i	0.8	6
O=C(CN1C(=O)NC(Cc2c[nH]c3ccccc23)C1=O)Nc1cccc(S(=O)(=O)N2CCCCCC2)c1 (stereo not drawn)	41	118	111	-0.9	i	0.8	-5
COCCNCC(=O)NCC12CC3CC(CC(C3)C1)C2	-47	93	104	-1.9	i	0.83	-8
CCOC(=O)c1c(-c2ccc(F)cc2)cn2ccccc12	-48	35	106	-1.5	i	1.1	4
CCOc1ccc(-n2c(-c3ccco3)n[nH]c2=S)cc1	/	/	97	-3.3	/	/	-3
FCCCOc1ccc(/C=N/OCc2ccc(Cl)cc2)cc1	13	156	98	-0.8	i	0.88	-3
O=C(NCc1ccc2c(c1)OCO2)C1CCCN(S(=O)(=O)c2cccc3cccnc23)C1 (stereo not drawn)	/	/	76	-3.0	i	0.95	4
O=C(COc1ccc(F)cc1)c1ccc2c(c1)CCCC2	13	98	/	-0.1	i	1	-1
Cc1ccc(C(=O)O/N=C/c2ccc3c(c2)OCO3)cc1	8	122	119	0.2	i	1	-9

(more compounds)
SMILES	Insulin prom inh	Insulin prom inh cell count	RGS16-Gao	GALR2 ag	HSV augment	HSV augment primary fold	PKD1 inh
Cc1cc(-c2n[nH]c(=S)n2-c2ccccc2C)cs1	-23	132	94	-0.8	i	0.93	0
COc1ccc([N+](=O)[O-])cc1/C=N/NC(=O)/C(=C\c1cccs1)NC(=O)c1ccccc1	-10	114	98	-4.3	i	0.94	8
O=S(=O)(c1ccc2c(c1)C(=NO)c1cc(S(=O)(=O)N3CCCCC3)ccc1-2)N1CCCCC1	-46	52	98	-3.3	i	0.46	-7
CNC(=O)c1c(C)nc(SCC(=O)NCc2ccc(OC)cc2)c(C#N)c1-c1ccco1	/	/	112	-0.7	i	0.93	-2
COc1ccc(NC(=S)NCCCN2CCN(C3CCCCC3)CC2)cc1	19	116	106	-0.7	i	0.95	-6
CCN(CC)c1ccc(C2C(C(C)=O)C(=O)CC(C)(O)C2C(C)=O)cc1 (stereo not drawn)	-19	105	/	-3.1	i	0.95	1
N#CCC(=O)NNC(=S)Nc1ccccc1C(F)(F)F	37	101	102	/	i	1	8
CC1CCN(S(=O)(=O)c2ccc3c(c2)CCN3C(=O)CCC(=O)O)CC1	-62	158	100	-3.6	i	1.1	-12
O=S(=O)(Nc1ncnc2sc3c(c12)CCC3)c1cc(F)ccc1F	/	/	99	/	i	0.9	/
CN(c1ccc(C(=O)N2CCCCC2)cc1)S(C)(=O)=O	48	173	108	-0.1	i	0.85	-11
Cc1cc([N+](=O)[O-])nn1CCCC(=O)Nc1sc2c(c1C(N)=O)CCCC2	-17	130	51	-0.7	i	0.86	-14
O=C(Nc1ccc(F)cc1)Nc1nnc(-c2ccccc2)o1	/	/	71	/	i	0.82	1
O=C(NCc1ccc(F)cc1)c1ccc(CS(=O)(=O)c2ccc(Br)cc2)o1	/	/	104	/	i	0.93	/
C=CCn1c(SCCOc2ccccc2)nnc1C(C)NC(=O)c1ccccc1 (stereo not drawn)	-238	102	105	-2.9	i	0.89	-15
CCOc1ccc2nc(/N=C/c3nc(-c4ccccc4)oc3O)sc2c1	0	101	109	-1.8	i	0.9	-12
COc1ccccc1CNC(=O)C(=O)NCC1OCCN1S(=O)(=O)c1cccs1 (stereo not drawn)	/	/	98	/	i	1.1	/
O=C(NC(=S)NC1CCSC1=O)c1ccccc1Cl (stereo not drawn)	/	/	123	-2.1	i	0.97	12
CCOc1ccc(NS(=O)(=O)c2cc(NC(=O)CCC(=O)c3cccs3)ccc2Cl)cc1	/	/	96	/	i	1	8

Entries of single compounds as entered above. Screens in order: Insulin prom inh | Insulin prom inh cell count | RGS16-Gao | GALR2 ag | HSV augment | HSV augment primary fold | PKD1 inh
CCOc1ccc(-n2c(-c3ccco3)n[nH]c2=S)cc1 is listed with / | / | 97 | -3.3 | / | / | -3
COCCNCC(=O)NCC12CC3CC(CC(C3)C1)C2 is listed with -47 | 93 | 104 | -1.9 | i | 0.83 | -8

Compound activity: PubChem BioAssay, several laboratories

An unsorted share of the library; about 1.2% have a hit in one of these screens.
